Screening data (PubChem)
CSC inhib: cancer stem cell viability inhibitors, primary screen, luminescence | AID 2717, 2010 | cancer stem cell-like cells viability | actives 1.1% (n = 300,000) | inhibition, % at 7.5 µM;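 active = mean at 75% or more and at least half the replicates too; tested in HMLE shEcad cells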;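 note: 0% = median of negative and 100% = median of positive control wells; the first replicate is given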
Rce1 inhib: yeast Rce1p protease inhibitors, primary screen, biochemical, fluorescence, cell-free homogeneous; CAAX prenyl protease 2 (Saccharomyces cerevisiae (strain ATCC 204508 / S288c)), Q03530; yeast membranes, quenched prenylated peptide cleavage fluorescence; calls only; actives 0.27% (n = 290,000); AID 2563, 2010;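 active = fall in fluorescence gain of 50% or more versus controls, with final raw signal at or below 3038400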;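 note: plate controls were neutral control wells for no effect and wells lacking membranes for full effect; tested at 10 µM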
Target sequence (Q03530 whole entry, looked up): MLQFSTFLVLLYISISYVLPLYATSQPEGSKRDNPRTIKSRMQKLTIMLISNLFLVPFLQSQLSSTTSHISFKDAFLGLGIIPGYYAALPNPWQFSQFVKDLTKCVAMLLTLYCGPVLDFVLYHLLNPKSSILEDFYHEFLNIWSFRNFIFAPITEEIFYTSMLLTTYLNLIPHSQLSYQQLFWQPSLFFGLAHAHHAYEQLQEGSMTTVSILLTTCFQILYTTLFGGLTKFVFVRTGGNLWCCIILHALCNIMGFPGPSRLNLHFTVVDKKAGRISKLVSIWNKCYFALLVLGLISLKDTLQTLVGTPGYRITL
eIF4H inh: human eIF4H binding inhibitors, primary screen, translation initiation inhibitor project, biochemical, uHTS, fluorescence polarization. actives 0.94% (n = 290,000). eIF4H fluorescence polarization binding assay. inhibition, % at 35 µM. Eukaryotic translation initiation factor 4H (Homo sapiens), Q15056;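 active = 50% or more with normal probe brightness, or confirmed in later tests; about a fifth of its hits are not listed in these tables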;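 note: calls also rest on retests at 20 µM and on dose response follow-up; 0% = protein and probe with vehicle and 100% = probe without protein; strong numbers were not always called active; many hits fall short of the cut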
HIV Env fusion: inhibitors of HIV-1 Env-driven cell-cell fusion, primary screen, HeLa-JRFL effector, CEM21 target cells, luciferase. actives 1.1% (n = 360,000). inhibition, % at 12.3 µM;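 active = mean replicate inhibition score of at least 50 and every replicate individually at or above 50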;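 note: 0% = plate neutral controls and 100% = maraviroc near 300 nM; one replicate is shown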
Yeast UUG start: modulators of yeast start codon fidelity, primary screen, whole organism, S. cerevisiae, single point, plate reader. actives 0.13% (n = 350,000). S. cerevisiae UUG-firefly luciferase reporter, luminescence/redox ratio. activity score, % at 18.7 µM;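 active = replicate mean at a twofold rise or more, about +100% in these data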;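 note: firefly luciferase made from a UUG start codon reports start codon fidelity; reporter light over untreated wells divided by growth signal over untreated wells; some hits fall short of that in this replicate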
MT1-MMP act inh: blockers of MT1-MMP proenzyme processing, primary screen, HT1080 RFP-PRO-GFP cells, GFP/RFP fluorescence; Matrix metalloproteinase-14 (Homo sapiens), P50281; GFP/RFP ratio fluorescence, overnight; percent of plate control window, DMSO zero; GFP/RFP ratio change, % at 20 µM; actives 0.061% (n = 360,000); AID 651647, 2012;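 active = GFP/RFP ratio change of at least 30% with cell ATP level not reduced by more than half and red fluorescence within 50% of control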; note: strong numbers were not always called active
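Assay system: HT1080 cells carrying an RFP-PRO-GFP reporter | Dosing: Single dose of 20 µM compound, 1% DMSO final | Incubation: Cells overnight before dosing, compound overnight, 37 °C, 5% CO2 | Evaluation: GFP/RFP fluorescence ratio | Control set: DMSO and RFP-L50D-GFP cell wells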
PABP polyA inh: PABP poly(A) RNA binding inhibitors, primary screen, biochemical, fluorescence polarization, uHTS; inhibition, % at 35 µM; actives 1% (n = 290,000);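 active = 50% or more with normal probe brightness, or confirmed in later tests; about a fifth of its hits are not listed in these tables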;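 note: calls also rest on retests at 20 µM and on dose response follow-up; controls were probe without protein and protein plus probe with vehicle; some compounds called inactive have numbers as strong as hits; many hits fall short of the cut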
MT1-MMP act inh RFP: recorded beside MT1-MMP act inh, whose call it bears; RFP signal change, %; measured here: RFP expression control read;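 0 = vehicle wells; hits needed this value within 50% of zero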
Active calls of the source: *; i = inactive; nt = no result given; + = active, no number. Outcome played no part in choosing rows; any-hit rate near 3%.

Each structure is followed by: CSC inhib, Rce1 inhib, eIF4H inh, HIV Env fusion, Yeast UUG start, MT1-MMP act inh, MT1-MMP act inh RFP, PABP polyA inh
> CC(C)(C)C(=O)NNC(=O)c1cc(C(C)(C)C)nn1Cc1ccccc1
    -18, i, -5, 11, nt, -2, -2, -10
> CCOC(=O)c1ccc(NS(=O)(=O)c2cnc[nH]2)cc1
    -12, i, -9, -113, -9, -4, 3, 0
> O=C(CCC(=O)N(CC(=O)NC1CCCC1)Cc1ccc2c(c1)OCO2)Nc1ccccn1
    -13, i, -4, nt, -1, 2, 11, 3
> Cc1cc2cc(CNC(=O)Cc3ccc([N+](=O)[O-])cc3)ccc2n1C
    13, i, 47, -9, nt, 42*, 50*, 16
> CCCc1cc(NCCCn2ccnc2)n2nc(C)c(-c3ccccc3)c2n1
    40, i, -1, 4, nt, 3, -7, -4
> CN(C)S(=O)(=O)c1cccc(NC(=O)c2cc(-c3cccs3)nn2-c2cccc(Cl)c2)c1
    34, i, -13, -6, nt, 5, -7, -5
> CCN(CC)CCN(C(=O)c1ccc2c(c1)OCCO2)c1nc2c(Cl)cccc2s1
    9, i, 4, 8, 4, 1, 3, 1
> CCN(C1CCS(=O)(=O)C1)S(=O)(=O)c1cccs1 (stereo not drawn)
    nt, i, 6, -10, -14, 4, 2, -1
> O=C1c2cc(CO)cc(O)c2C(=O)c2c(O[C@@H]3OC(CO)[C@@H](O)[C@@H](O)[C@@H]3O)cccc21 (stereo partly drawn)
    -10, i, nt, nt, 2, -1, -3, nt
> CCN(C(=O)c1ccc(S(=O)(=O)N2CCCC2)cc1)C1CCS(=O)(=O)C1 (stereo not drawn)
    -2, i, nt, -27, -12, -2, 4, nt
> Cc1cc(C(=O)NC2CCCN(Cc3ccccc3F)C2)n[nH]1 (stereo not drawn)
    -6, nt, 2, nt, -18, -2, -2, -6
> O=C(CSC1=NS(=O)(=O)c2ccccc2N1)NCCc1ccccc1
    1, i, nt, -19, nt, 3, 6, nt
> O=C(NCc1ccccn1)C1CCC(=O)N1C1CCCCC1 (stereo not drawn)
    0, i, -7, -6, -20, -1, 0, -3
> O=C(CN1C(=O)CCSc2ccc(S(=O)(=O)N3CCOCC3)cc21)Nc1cccc(F)c1
    -13, i, 11, 2, -11, -1, 0, 3
> Cc1ccc(C(C(=O)NC2CCCCC2)N(Cc2cccnc2)C(=O)C2COc3ccccc3O2)o1 (stereo not drawn)
    -1, nt, -12, nt, 2, nt, nt, -3
> COC(=O)C1=C(N)Oc2cc(C)[nH]c(=O)c2C1c1cc(OC)c(OC)c(OC)c1 (stereo not drawn)
    -12, i, 2, nt, 1, 8, 4, 5
> COCCN1CCn2c(nc3cc(NC(=O)NC4CCCCC4)ccc32)C1
    -12, nt, -8, 13, -26, -2, 5, 5
> CCn1c(/C=N/c2nc3ccccc3n2C)nc2ccccc21
    -6, i, 1, nt, nt, 1, 0, -6
> CN(c1ccccc1)S(=O)(=O)c1cccc(NC(=O)c2ccc(=O)[nH]n2)c1
    -4, nt, nt, 7, -5, 3, -19, nt
> Cc1nn(C(C)C(=O)NC2CC2)c(=O)c2nn(-c3ccccc3)c(C)c12 (stereo not drawn)
    2, i, 4, -2, 3, -3, 1, 9
> CCOc1ccc(C(=O)NCc2ccc3c(c2)OCO3)cc1
    -10, i, 6, -5, 1, -1, 5, -5
> CC(=O)N/C(=C\c1ccccc1)C(=O)OCC(=O)N(CC(C)C)c1c(N)n(Cc2ccccc2)c(=O)[nH]c1=O
    14, nt, nt, -4, nt, -4, 4, nt
> COCCNC(=O)CCc1nnc2ccc(N3CCC(C)CC3)nn12
    -24, i, -3, 5, -4, 2, -3, -12
> COc1ccc(NC(=O)C2CCCCN2N)cc1OC (stereo not drawn)
    -9, i, -4, -13, -21, 0, -3, 3
> Cc1ccccc1Nc1ncnc2[nH]ncc12
    nt, nt, nt, 9, -19, -3, -3, nt
> Cc1nc(-c2cccc(NC(=O)c3ccc(-n4cccn4)cc3)c2)cs1
    17, nt, nt, -24, -20, 3, -2, nt
> Cc1cccc(C(=O)Nc2c3c(nn2C(C)(C)C)CS(=O)(=O)C3)c1
    5, i, -6, -6, -3, 1, 4, -3
> O=C(Cn1nnc2ccccc21)OCc1ccccc1
    -15, i, -2, 16, nt, 0, 2, -9
> Cc1ccc(S(=O)(=O)N2CCC(=O)N(C(COCc3ccc(Cl)cc3Cl)Cc3ccccc3)CC2)cc1 (stereo not drawn)
    21, i, -2, 37, -12, -6, -10, 17
> COc1cccc(/C=C/c2nc(S(=O)(=O)c3ccccc3)c(N3CCC(C(N)=O)CC3)o2)c1
    nt, nt, nt, 8, -12, -4, 1, nt
> CCOC(=O)CN1CC23C=CC(O2)C(C(=O)Nc2ccc(OCC)cc2)C3C1=O (stereo not drawn)
    -14, i, -3, -46, -42, 1, 3, -3
> CC(/C=C/c1ccccc1)=N\NC(=O)c1cc(C)nc2ccccc12
    8, i, -10, -3, -13, 3, -1, -5
> S=c1[nH]nc(Cc2ccc(Br)cc2)n1/N=C/c1ccc(Cl)cc1
    2, i, 2, 8, nt, 2, -2, -7
> CCN1CCN(C(=O)c2ccc(Cl)c(S(=O)(=O)N3CCOCC3)c2)CC1
    -6, i, 0, nt, 1, 2, 4, 44
> Cc1ccc(NC(=O)C23CCC(C)(C(=O)[C@H]2Br)C3(C)C)cc1 (stereo partly drawn)
    -3, i, 1, 11, nt, 3, 9, -6
> O=C(COC(=O)c1ccc(Cl)c(S(=O)(=O)N2CCCC2)c1)NC1CCCCC1
    -22, i, -8, 12, -20, -5, 2, 8
> Cc1cc(C)n2nc(SCC(=O)N3CCc4ccccc43)nc2n1
    0, i, -4, -4, nt, 3, 4, 1
> Cc1ccc(O)c(NC(=S)NC(=O)/C=C/c2ccccc2)c1
    -15, nt, 7, 10, -5, 2, 3, 17
> CCC(C)C(NC(N)=O)C(=O)NC1CCC(C)CC1 (stereo not drawn)
    -12, i, 3, nt, nt, nt, nt, 3
> O=C(O)Cc1ccc(NC(=O)c2ccc3c(c2)C(=O)N(CC2CCCO2)C3=O)cc1 (stereo not drawn)
    -2, i, 22, -8, -6, 0, 5, 2
> COCCN(C(=O)COC(=O)/C=C/c1ccco1)c1c(N)n(Cc2ccccc2)c(=O)[nH]c1=O
    11, i, 38, -5, -10, -2, 3, 6
> CN(C)/N=C/c1ccc(N2CCOCC2)cc1
    10, i, -7, 11, -17, -3, 0, -5
> Cc1ccc(-c2ccc(CCC(=O)O)n2NC(=O)c2cccs2)cc1
    -2, i, -6, nt, -1, -6, 3, 9
> CSCCCN1CC[C@@H](N2CCN(c3ccccc3F)CC2)[C@H](O)C1
    16, i, -1, -8, -20, -1, 0, -1
> Cc1ccc(S(=O)(=O)NC(=O)c2cc(C)n(C3CC3)c2C)cc1
    -18, i, 3, 15, -7, 3, 5, -5
> COc1ccc(OC)c(/C=C/C(=O)OCC(=O)c2c(N)n(C)c(=O)n(C)c2=O)c1
    7, i, 0, -9, 10, -1, 3, -4
> O=C1OC(OC2CCCCC2)(c2ccccc2)c2ccccc21 (stereo not drawn)
    -17, i, -8, nt, -4, 3, -8, -7
> CCCCCC(=O)N1CC2(CC(c3cccc(NC(=O)CC)c3)=NO2)C[C@H]1C(N)=O (stereo partly drawn)
    -9, i, -5, -19, 7, -1, 1, -1
> CC(OC(=O)C1=COCCO1)C(=O)Nc1cccc(S(=O)(=O)N2CCOCC2)c1 (stereo not drawn)
    -14, i, -5, 14, -5, -2, 2, -1
> COCCNC(=O)C(=O)NCC1OCCN1S(=O)(=O)c1ccc(F)cc1 (stereo not drawn)
    1, i, 0, nt, -8, 0, 3, -1
> Cc1cc(-c2ccccc2)c2c(n1)sc1c(O)cc(=O)[nH]c12
    -11, i, 3, 11, nt, nt, nt, 15
> Cc1ccc(NC(=S)NNC(=O)c2ccccc2O)c(C)c1
    -11, i, 2, 4, nt, 6, -1, -5
> Cc1c(C(=O)Nc2ccc3c(c2)OCCO3)cnn1C
    -7, i, 1, -7, -55, 0, 1, 10
> COc1ccc(-n2c(C)cc(C3=NNC(=NC4CC4)SC3)c2C)cc1
    nt, nt, 10, -13, nt, 0, 2, 6
> COc1ccc(Cl)cc1NC(=O)CN(C)Cc1cccs1
    1, nt, 1, 1, -10, 2, -2, 6
> O=c1c2ccccc2c(-c2ccccc2)nn1-c1cc(Cl)ccc1[N+](=O)[O-]
    -2, i, 9, nt, -10, -4, -4, -6
> O=c1[nH]cccc1-c1nc2ccccc2n1Cc1cccc(Cl)c1
    -5, +, 9, -2, -9, 2, 4, 6
> CCN1CCN(C(=O)CCc2ccc(S(=O)(=O)NCCc3ccccc3)cc2)CC1
    nt, i, -8, nt, 2, -2, 0, -5
> CN1CCCN(CC(O)COCc2cccs2)CC1 (stereo not drawn)
    3, i, -7, nt, -14, 0, 2, 9
> O=C(CSc1nnc2c(n1)[nH]c1ccccc12)NC1CCCCC1
    -3, i, -9, 21, -7, -4, -27, 3

Remaining list, next part:
Each structure is followed by: CSC inhib, Rce1 inhib, eIF4H inh, HIV Env fusion, Yeast UUG start, MT1-MMP act inh, MT1-MMP act inh RFP, PABP polyA inh
> CCOC(=O)c1cc2c(C)n(-c3ccc(N(C)C)cc3)c(C)c2cc(C(=O)OCC)c1=O
    0, i, 12, -22, -12, 1, 6, 6
> Cc1cccc(Nc2ccccc2C(=O)OCC(=O)NCc2ccco2)c1C
    1, i, 35, 38, -9, 0, -2, -5
> CCCCCCNC(=O)CCNC(=O)c1cc(OC)c(OC)c(OC)c1
    9, i, -7, nt, nt, 0, 2, -3
> CC(C)N(Cc1cn(C)nc1-c1cccc(Cl)c1)CC1CCC(=O)N1 (stereo not drawn)
    -20, i, 1, 9, -22, -6, 0, -1

Gathered by group: those above containing an NH in an aromatic ring (11)
Each structure is followed by: CSC inhib, Rce1 inhib, eIF4H inh, HIV Env fusion, Yeast UUG start, MT1-MMP act inh, MT1-MMP act inh RFP, PABP polyA inh
> CCOC(=O)c1ccc(NS(=O)(=O)c2cnc[nH]2)cc1
    -12, i, -9, -113, -9, -4, 3, 0
> Cc1cc(C(=O)NC2CCCN(Cc3ccccc3F)C2)n[nH]1 (stereo not drawn)
    -6, nt, 2, nt, -18, -2, -2, -6
> COC(=O)C1=C(N)Oc2cc(C)[nH]c(=O)c2C1c1cc(OC)c(OC)c(OC)c1 (stereo not drawn)
    -12, i, 2, nt, 1, 8, 4, 5
> CN(c1ccccc1)S(=O)(=O)c1cccc(NC(=O)c2ccc(=O)[nH]n2)c1
    -4, nt, nt, 7, -5, 3, -19, nt
> CC(=O)N/C(=C\c1ccccc1)C(=O)OCC(=O)N(CC(C)C)c1c(N)n(Cc2ccccc2)c(=O)[nH]c1=O
    14, nt, nt, -4, nt, -4, 4, nt
> Cc1ccccc1Nc1ncnc2[nH]ncc12
    nt, nt, nt, 9, -19, -3, -3, nt
> S=c1[nH]nc(Cc2ccc(Br)cc2)n1/N=C/c1ccc(Cl)cc1
    2, i, 2, 8, nt, 2, -2, -7
> COCCN(C(=O)COC(=O)/C=C/c1ccco1)c1c(N)n(Cc2ccccc2)c(=O)[nH]c1=O
    11, i, 38, -5, -10, -2, 3, 6
> Cc1cc(-c2ccccc2)c2c(n1)sc1c(O)cc(=O)[nH]c12
    -11, i, 3, 11, nt, nt, nt, 15
> O=c1[nH]cccc1-c1nc2ccccc2n1Cc1cccc(Cl)c1
    -5, +, 9, -2, -9, 2, 4, 6
> O=C(CSc1nnc2c(n1)[nH]c1ccccc12)NC1CCCCC1
    -3, i, -9, 21, -7, -4, -27, 3
